Source: PubChem (several laboratories)
Mtb bLac sens: beta-lactam sensitization of Mtb H37Rv; AID 434955; inhibition, % at 25 µM; 0.27% of 330,000 active; M. tuberculosis H37Rv growth with meropenem, percent inhibition; hits of this screen are not shown here;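 active = about 74% or more and at least 40 points above the plate without the antibiotic, then above 30% in a dose series; inconclusive = first-round hits that could not be retested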;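 note: growth measured after seven days incubation then overnight dye step; 0% = bacteria only wells and 100% = bacteria with antibiotic; twin plates without the antibiotic show which effects depend on it; some results filed as inactive read as strong as hits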
YopH PTP inh: blocks Yersinia enterocolitica YopH tyrosine phosphatase; fluorescence Ex485/Em525; inhibition, %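 (about 10 µM by stock and volumes)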; 0.16% of 140,000 active;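 active = inhibition of 50% or more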;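 note: controls were vehicle for no effect and minimum signal wells for full effect; inactives centre near -20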
Arbovirus inh: antivirals against arbovirus infection; inhibition, % at 10 µM; 0.37% of 200,000 active; arbovirus infection cell-based antiviral screen;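 active = inhibition from about 30%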;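 note: bluetongue infection of BSR cells; cell survival read as ATP light after 72 h; 0% = infected wells without compound and 100% = uninfected wells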
RecA intein inh: Mtb RecA intein splicing inhibition | inhibition, %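 (about 9 µM by stock and volumes)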 | AID 2221 | 0.75% of 290,000 active | P9WHJ3 | cell-free RecA intein splicing, fluorescence; in the data active = inhibition above about 30%; inconclusive = no clear call, values can overlap the other calls;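 note: 0% = vehicle wells and 100% = reference inhibitor control wells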
Target sequence (P9WHJ3 whole entry, looked up): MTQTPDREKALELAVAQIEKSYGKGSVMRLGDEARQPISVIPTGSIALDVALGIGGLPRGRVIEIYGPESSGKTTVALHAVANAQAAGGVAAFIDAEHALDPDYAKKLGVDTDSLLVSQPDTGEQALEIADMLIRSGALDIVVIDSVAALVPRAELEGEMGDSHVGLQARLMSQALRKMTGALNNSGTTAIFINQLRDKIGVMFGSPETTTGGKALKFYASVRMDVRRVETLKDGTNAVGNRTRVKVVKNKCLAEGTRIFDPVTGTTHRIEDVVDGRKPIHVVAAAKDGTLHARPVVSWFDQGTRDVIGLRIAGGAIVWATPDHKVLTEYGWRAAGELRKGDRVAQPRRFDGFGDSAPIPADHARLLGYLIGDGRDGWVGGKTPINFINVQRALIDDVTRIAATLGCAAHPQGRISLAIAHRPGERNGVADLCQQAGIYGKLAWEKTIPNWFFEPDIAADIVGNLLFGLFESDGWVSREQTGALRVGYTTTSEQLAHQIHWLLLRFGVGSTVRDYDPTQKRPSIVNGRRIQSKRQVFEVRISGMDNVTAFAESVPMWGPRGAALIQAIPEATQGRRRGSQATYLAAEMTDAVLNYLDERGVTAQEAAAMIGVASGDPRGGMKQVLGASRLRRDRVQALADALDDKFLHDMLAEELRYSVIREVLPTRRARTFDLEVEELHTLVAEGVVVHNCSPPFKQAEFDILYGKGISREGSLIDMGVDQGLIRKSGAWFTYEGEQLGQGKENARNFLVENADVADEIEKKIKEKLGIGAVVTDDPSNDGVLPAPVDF
Mtb growth: M. tuberculosis H37Rv growth inhibitors, H37Rv strain (AID 1626); inhibition, % at 10 µM; hits with a dose series show IC50 in µM; M. tuberculosis H37Rv growth inhibition; higher % means a stronger effect; 0.95% of 220,000 active;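 active = confirmed in a dose series; inconclusive = inhibition above 80% but not taken into the dose series; inactive = below 80% or under 30% at every dose of the series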;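 note: bacteria incubated seven days before Alamar blue readout; 0% = bacteria only wells and 100% = bacteria with antibiotic wells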
Arbovirus inh repeat: also measured in Arbovirus inh; calls as there; inhibition, %; measured here: 10K subset replicate screen; many hits read low in the repeat;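 first of two repeat runs on a subset; 0% = infected and 100% = uninfected wells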
Numbers without * were called inactive; u = inconclusive; x = no result given. This is a subset; the hit share may differ from the screen's.

The first 2 compounds, ahead of the listing:
SMILES	Mtb bLac sens	YopH PTP inh	Arbovirus inh	RecA intein inh	Mtb growth	others
O=C(CNS(=O)(=O)c1c(Cl)cccc1Cl)OCC(=O)N1CCN(c2ccccc2)CC1	-4	-16	-5	4.7	-10%
COc1cccc(N2CC(NS(=O)(=O)c3cccnc3)CC2=O)c1 (configuration not stated)	-11	x	x	-4.0	x

The whole of this part, previewed entries included:
SMILES	Mtb bLac sens	YopH PTP inh	Arbovirus inh	RecA intein inh	Mtb growth	others
O=C(CNS(=O)(=O)c1c(Cl)cccc1Cl)OCC(=O)N1CCN(c2ccccc2)CC1	-4	-16	-5	4.7	-10%
COc1cccc(N2CC(NS(=O)(=O)c3cccnc3)CC2=O)c1 (configuration not stated)	-11	x	x	-4.0	x
O=C(CSCc1c(F)cccc1Cl)NNC(=S)NC1CCCCC1	-1	x	x	4.1	x
CCC1CCCCN1C(=O)c1ccc(OC)c(OC2CCN(C(C)C)CC2)c1 (configuration not stated)	4	x	x	-1.1	x
O=C(NCc1ccc(N2CCCC2=O)cc1)Nc1cccc(Cl)c1	-3	-28	-1	1.2	4%
Cc1onc(-c2ccccc2Cl)c1C(=O)NCc1ccccc1F	5	x	x	0.0	x
COc1ccc(Cl)cc1NC(=O)C12CCC(C)(C(=O)O1)C2(C)C (configuration not stated)	-8	-16	7	0.1	-1%
O=C(O)c1cccc(C(=O)O)c1	6	x	x	-0.8	x
CCCCCCCNC(=O)C1(CC2CC(c3ccc(Cl)cc3)=NO2)CCN(C(=O)CCCCCBr)CC1 (configuration not stated)	100	x	x	6.7	x
O=C(O)c1ccccc1-n1cnnn1	5	x	x	-2.7	-16%
Cc1nc2sc(C(c3cccc(F)c3)N3CCCCC3)c(O)n2n1 (configuration not stated)	-3	-19	5	0.2	2%
O=C1CCN(C(=O)Cc2ccccc2[N+](=O)[O-])CC1	-5	x	-5	-0.1	-2%
CCOC(=O)Nc1sc2c(c1C(N)=O)CCC(C)C2 (configuration not stated)	6	x	-9	-2.5	-5%
N#CCCN1CCN(C(=O)c2c(N)no[n+]2[O-])CC1	-2	x	13	-3.9	2%
Cc1cc(C)c(S(=O)(=O)Nc2ccccc2-c2ccccc2)c(C)c1	5	1	-3	22	x
O=C(Nc1cc2c(cc1Cl)OCCCO2)c1ccco1	-6	-30	-1	0.8	-1%
Fc1ccc(C2=Nn3c(nnc3-c3ccco3)SC2)cc1	-1	x	x	x	3%
CS(=O)(=O)N(CCc1ccccc1)CC(=O)N1CCCCC1	1	-16	7	0.9	-12%
O=C(O)c1ccc(/C=N/N2CCN(Cc3ccccc3)CC2)cc1	-8	-35	8	5.8	16%
Cc1ccc(N=C/C(C(=O)C(F)(F)F)=C(\O)c2ccco2)cc1Cl	92	-21	2	0.1	>100µM*
Cc1c(Br)c([N+](=O)[O-])nn1CCCC(=O)Nc1c(C)n(C)n(-c2ccccc2)c1=O	-6	x	-4	-2.7	2%
O=S(=O)(/N=C(/Nc1ccc(Cl)cc1Cl)c1ccccc1)c1cccs1	0	x	9	5.4	6%
CCc1ccc(CNC(=O)CCCn2nc(C)n3ccnc3c2=O)cc1	2	x	x	-1.9	x
Cc1ccc(NC(=O)C2CCN(c3cnccn3)CC2)cc1C	-1	x	3	-3.4	-1%
COc1ccc(CNC(=O)COC(=O)C2CC3C=CC2C3)cc1 (configuration not stated)	9	-29	-8	0.9	-1%
CCCCC(=O)Nc1nc2ccc3nc(C)sc3c2s1	-4	x	-3	2.4	11%	Arbovirus inh repeat=-5
COc1ccc(N2CC(NC(=O)NCC(C)C)CC2=O)cc1 (configuration not stated)	4	-23	3	0.5	3%
O=C(NCCC1=CCCCC1)C1CCN(S(=O)(=O)c2cccc3nonc23)CC1	1	8	-2	-1.9	2%
Cc1onc(-c2ccccc2Cl)c1C(=O)N1CCCCC1C (configuration not stated)	7	x	x	-1.2	x
Cc1ccc(OCc2nc(-c3cccnc3)no2)cc1C	-5	x	12	1.5	1%
CC(=O)CCc1ccc(OCC(O)CNC2CCCc3ccccc32)cc1 (configuration not stated)	-4	-9	1	4.2	4%
COc1ccc(OC)c(/C=N/NC(=O)c2cccc3ccccc23)c1	-1	x	x	-0.5	x
O=C(COc1ccccc1)N/N=C/c1ccc([N+](=O)[O-])o1	100	-18	-17	7.5	u
O=C(NCc1ccccn1)c1ccc(Cl)c(S(=O)(=O)Nc2ccccc2C(=O)NCc2ccccn2)c1	6	-15	-5	-1.9	-4%
Cc1cc(C)n2nc(C(=O)OCC(=O)N3CC(C)CC(C)C3)nc2n1 (configuration not stated)	-1	x	x	-6.0	x
COc1cc(/C=C2\C(=O)ON=C2c2ccc(Cl)cc2)ccc1O	-11	x	x	25	x

6 records drawn at random from those above:
SMILES	Mtb bLac sens	YopH PTP inh	Arbovirus inh	RecA intein inh	Mtb growth	others
COc1cc(/C=C2\C(=O)ON=C2c2ccc(Cl)cc2)ccc1O	-11	x	x	25	x
O=C(NCCC1=CCCCC1)C1CCN(S(=O)(=O)c2cccc3nonc23)CC1	1	8	-2	-1.9	2%
CC(=O)CCc1ccc(OCC(O)CNC2CCCc3ccccc32)cc1 (configuration not stated)	-4	-9	1	4.2	4%
CCCCC(=O)Nc1nc2ccc3nc(C)sc3c2s1	-4	x	-3	2.4	11%	Arbovirus inh repeat=-5
Cc1ccc(OCc2nc(-c3cccnc3)no2)cc1C	-5	x	12	1.5	1%
COc1ccc(OC)c(/C=N/NC(=O)c2cccc3ccccc23)c1	-1	x	x	-0.5	x

(listing goes on)
SMILES	Mtb bLac sens	YopH PTP inh	Arbovirus inh	RecA intein inh	Mtb growth	others
C/C(=N\NC(=O)CCc1c[nH]c2ccccc12)c1ccc([N+](=O)[O-])cc1	7	-34	5	1.8	10%
CNC(=O)c1cc2c(s1)CCCCCC2	-4	-1	1	2.2	-7%
CCN(Cc1ccccc1)S(=O)(=O)c1ccc(OC)cc1	3	x	x	0.4	x
CCOc1ccc(OCC)c(NC(=O)CSCCc2ccccn2)c1	2	x	1	1.5	7%
C=C1C(=O)O[C@@H]2C[C@@H](C)[C@H]3C=CC(=O)[C@]3(O)C[C@@H]12	52	x	x	3.9	-8%
CCCc1nnc(NC(=O)CN2C(=O)C3C4C=CC(C4)C3C2=O)s1 (configuration not stated)	-13	3	3	x	-6%
CCOC(=O)c1ccc(NC(=O)CCc2c(C)nc3ncnn3c2C)cc1	97	4	11	2.0	>100µM*
COC(=O)c1ccc(Nc2ccc3nonc3c2[N+](=O)[O-])cc1	1	x	x	-1.2	x
CC(=O)c1ccc(N2CCN(CC(=O)Nc3cc(C)on3)CC2)cc1	-1	x	2	1.9	-2%
CCCCCNC1=CC(=O)CC(c2ccccc2)C1 (configuration not stated)	-1	-32	-18	0.9	-5%
COc1ccc(-n2ncc3c(NCc4ccc5c(c4)OCO5)ncnc32)cc1	u	-34	1	-0.3	2%
Cc1cc(=O)n2cc(-c3ccccc3)nc2[nH]1	-2	-33	-4	3.9	-10%
O=C(O)c1sccc1Oc1ccc(F)cc1[N+](=O)[O-]	1	-2	-1	-0.5	x
O=C(C(c1ccccc1)c1ccccc1)N1CCCc2ccccc21	10	0	5	0.0	4%
O=C(Nc1ccccc1Oc1ccccc1)C1=COCCO1	-5	x	x	20	x
CCN(CC)S(=O)(=O)c1cccc(NC2=NCC(C)S2)c1 (configuration not stated)	-9	x	8	0.5	-2%
CCC(C(=O)NC1CCCC1)n1nc(C)n2c(cc3occc32)c1=O (configuration not stated)	0	x	x	-1.0	x
CC1Cc2cc(/C(O)=C3/C(=O)C(=O)N(CCN4CCOCC4)C3c3cccc(Cl)c3)ccc2O1 (configuration not stated)	-18	-45	2	2.2	-7%
O=C1CN(c2ccc(Br)cc2)C(=O)N1CC(=O)N1CCCc2ccccc21	0	-6	-12	-0.1	2%
O=C(NCC(c1ccco1)N1CCc2ccccc2C1)c1ccccc1 (configuration not stated)	-6	x	x	4.1	x
O=C(Nc1cccnc1)Nc1cccc(F)c1	-1	x	x	4.2	x
Cc1ccc(C(=O)NC(=S)Nc2ccc(S(=O)(=O)N3CCN(C)CC3)cc2)cc1	-2	-8	9	-1.5	x
O=C(NC1CCCN(CCc2ccccc2)C1)c1c[nH]c2ccccc12 (configuration not stated)	1	x	x	2.7	x
O=C1NC(=S)NC(=O)C12C(c1ccc(F)cc1)NC(=S)NC2c1ccc(F)cc1 (configuration not stated)	8	-15	2	0.5	-5%
CN(C(=O)CSc1nnc(-c2ccccc2)c(-c2ccccc2)n1)C1CCS(=O)(=O)C1 (configuration not stated)	8	-16	-6	1.9	7%
CN(C)CCCNC1=CC(=O)CC(c2ccccc2)C1 (configuration not stated)	-5	x	15	-1.0	-3%
O=C(CN(CC1CCCO1)S(=O)(=O)c1ccc(S(=O)(=O)NC2CC2)cc1)Nc1ccccc1 (configuration not stated)	-14	8	2	4.4	-9%
C=CCn1c(=O)c2c(nc(Br)n2Cc2ccccc2Cl)n(C)c1=O	-10	3	-5	-0.8	2%
Cc1cc(C)c(OCC(=O)N(Cc2ccc(N(C)C)cc2)C2CCS(=O)(=O)C2)c(C)c1 (configuration not stated)	-9	x	x	2.2	-6%
CCOC(=O)C(CCCOc1ccc(C(C)CC)cc1)C(=O)OCC (configuration not stated)	0	-7	3	9.8	0%
CSS(=O)(=O)c1cccc2cccnc12	-7	x	x	-0.6	1%
CCc1noc(C)c1C(=O)N1CCN(S(=O)(=O)c2ccc(Br)cc2)CC1	-8	x	x	-2.0	x
O=c1nc(N2CCOCC2)ccn1-c1nc(-c2ccccc2)sc1-c1ccccc1	0	x	x	-0.3	2%
CC(C)(C)c1ccc(S(=O)(=O)N2CC(C(=O)O)Oc3ccc(Cl)cc32)cc1 (configuration not stated)	4	x	x	0.3	x
CN(C)CC(C)(C)CNS(=O)(=O)c1ccc(Cl)cc1	49	x	-9	0.0	6%
CCOCCCNC(=O)c1ccc2c(=O)n(Cc3ccc(OC)cc3)c(=O)[nH]c2c1	0	x	0	1.1	-1%
CC(C)OCCCNC(=O)c1ccc(CS(=O)(=O)c2cccc(C(F)(F)F)c2)o1	-3	x	x	-0.8	x
CC1(C)Oc2ccc3ccc(=O)oc3c2/C(=C/NNC(N)=O)C1=O	-2	x	x	1.5	x
COc1cc(C(=O)OCC#N)ccc1OCc1c(C)noc1C	7	x	x	0.4	-5%
Cc1ccc(C2=NOC(C)(c3nnc(-c4ccccc4)o3)C2)cc1 (configuration not stated)	-9	x	x	0.0	-3%
O=[N+]([O-])c1ccc(OCCn2cncn2)cc1	-5	x	x	-1.9	x
Cc1cccc(NC(=O)Nc2cccc(Oc3c(F)c(F)c(F)c(F)c3F)c2)c1	7	-34	2	-0.6	1%
CC(C)C(=O)Nc1nnc(S(=O)(=O)N2CCc3ccccc32)s1	8	x	x	-1.0	x
CCOc1ccccc1OCCOCCOc1c(Cl)cccc1Cl	2	-20	8	11	15%
CSC1=NC(C)(C)C=C(/C=C/c2ccc(Cl)cc2)N1	9	x	-27	10.0	-4%
CCN(C(=O)CSc1ncccn1)C1CCS(=O)(=O)C1 (configuration not stated)	-3	x	x	0.9	x
Cc1cccc(OCc2nnc(SCC(=O)O)n2-c2ccccc2)c1	-8	x	x	-1.7	x
O=C(NC1CCCCC1)C(=S)NCCc1ccccc1	-2	x	16	1.1	7%

Not a retest: an excerpt of the list.
SMILES	Mtb bLac sens	YopH PTP inh	Arbovirus inh	RecA intein inh	Mtb growth	others
CCN(C(=O)CSc1ncccn1)C1CCS(=O)(=O)C1 (configuration not stated)	-3	x	x	0.9	x
Cc1cccc(OCc2nnc(SCC(=O)O)n2-c2ccccc2)c1	-8	x	x	-1.7	x
O=C(NC1CCCCC1)C(=S)NCCc1ccccc1	-2	x	16	1.1	7%

Remaining list, next part:
SMILES	Mtb bLac sens	YopH PTP inh	Arbovirus inh	RecA intein inh	Mtb growth	others
Cc1ccc(S(=O)(=O)CCC(=O)OC(C)C(=O)NC2CCCCC2C)cc1 (configuration not stated)	-3	x	x	-3.0	x
Cc1cc(Oc2ccc(Cl)cc2)nc(-c2ccccc2O)n1	4	-18	4	3.2	20%
CCOC(=O)c1c(S(=O)(=O)N2c3ccccc3CC2C)c(C)n(C)c1C (configuration not stated)	-10	x	x	-0.5	x
CC(C)[C@H](NC(=O)N1CC(=O)Nc2ccccc21)C(=O)N[C@H](C(=O)O)c1ccccc1	-11	x	x	-0.4	x
O=C(CSc1nnnn1-c1cccc2c1CCCC2)N1CCCCC1	-4	-81	4	-1.5	-1%
O=Nc1c(O)c2ccccc2c2ccccc12	100	x	x	41*	x
COc1ccc(NC(=S)N(CCc2c(C)[nH]c3ccc(C)cc23)Cc2cccnc2)cc1	2	-25	0	6.3	x
CC(C)Cc1nnc(NC(=O)CCC(=O)NC2CC2)s1	7	x	x	-2.2	x
CCN(CC)CCn1c(O)c(N=O)c2ccccc21	-2	-26	4	-1.6	-6%
Cc1nc(C)c(-c2ccc(SCc3ccc([N+](=O)[O-])cc3)nn2)s1	1	x	x	-1.3	x
